Assay outcomes from PubChem BioAssay.
Bfl-1 A1 inh = caspase 3/7 activation in MEF A1-2A-BIM cells, primary screen, A1 inhibitor project, cell-based, luminescence, HTS; Caspase-Glo 3/7 luminescence, 3 h; percent of clofoctol response, vehicle zero; caspase activation, % (no concentration beside the values); actives 0.066% (n = 330,000); AID 2462, 2010;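 active = over half of replicate activation scores above 10%, or exactly half above 10 with the replicate mean above 10; inconclusive = replicate mean below 10 yet half the replicates above 10; inactive = over half of replicates below 10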;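 note: wells of about 30 µL received 50 nL stock; many hits fall short of the cut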
Beta2AR agonist = beta2AR agonists driving receptor internalization, primary screen, cell-based, FAP fluorogen, flow cytometry. AID 504454, 2011. actives 0.43% (n = 340,000). response, % (test concentration not listed). Am2.2-beta2AR cells; reference of the scale not given here;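 active = response above a set limit, near 3 SD of response in nonfluorescent compounds, cut at about 42% in these data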;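 note: stock transfer was 100 nL into about 11 µL; a reference agonist was the positive control; negative values mostly stem from fluorescent compounds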
LANA-H2A inh = blockers of LANA interaction with H2A/H2B – biochemical, FP readout, HTS, primary screen | inhibition, % (test concentration not listed) | cell-free LANA-H2A/H2B peptide, fluorescence polarization | Protein LANA1 (Human herpesvirus 8 type P (isolate GK18)), Q9QR71 | actives 0.6% (n = 320,000); in the data active = inhibition mostly above about 10%, no sharp cut-off; inactive = mostly below about 6.7%;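 note: stock transfer was 7.5 nL into about 10 µL; 0% = median of vehicle wells and 100% = median of positive control wells; one replicate is shown; the record names a cut of 25% in any replicate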
Target sequence (Q9QR71 whole entry, looked up): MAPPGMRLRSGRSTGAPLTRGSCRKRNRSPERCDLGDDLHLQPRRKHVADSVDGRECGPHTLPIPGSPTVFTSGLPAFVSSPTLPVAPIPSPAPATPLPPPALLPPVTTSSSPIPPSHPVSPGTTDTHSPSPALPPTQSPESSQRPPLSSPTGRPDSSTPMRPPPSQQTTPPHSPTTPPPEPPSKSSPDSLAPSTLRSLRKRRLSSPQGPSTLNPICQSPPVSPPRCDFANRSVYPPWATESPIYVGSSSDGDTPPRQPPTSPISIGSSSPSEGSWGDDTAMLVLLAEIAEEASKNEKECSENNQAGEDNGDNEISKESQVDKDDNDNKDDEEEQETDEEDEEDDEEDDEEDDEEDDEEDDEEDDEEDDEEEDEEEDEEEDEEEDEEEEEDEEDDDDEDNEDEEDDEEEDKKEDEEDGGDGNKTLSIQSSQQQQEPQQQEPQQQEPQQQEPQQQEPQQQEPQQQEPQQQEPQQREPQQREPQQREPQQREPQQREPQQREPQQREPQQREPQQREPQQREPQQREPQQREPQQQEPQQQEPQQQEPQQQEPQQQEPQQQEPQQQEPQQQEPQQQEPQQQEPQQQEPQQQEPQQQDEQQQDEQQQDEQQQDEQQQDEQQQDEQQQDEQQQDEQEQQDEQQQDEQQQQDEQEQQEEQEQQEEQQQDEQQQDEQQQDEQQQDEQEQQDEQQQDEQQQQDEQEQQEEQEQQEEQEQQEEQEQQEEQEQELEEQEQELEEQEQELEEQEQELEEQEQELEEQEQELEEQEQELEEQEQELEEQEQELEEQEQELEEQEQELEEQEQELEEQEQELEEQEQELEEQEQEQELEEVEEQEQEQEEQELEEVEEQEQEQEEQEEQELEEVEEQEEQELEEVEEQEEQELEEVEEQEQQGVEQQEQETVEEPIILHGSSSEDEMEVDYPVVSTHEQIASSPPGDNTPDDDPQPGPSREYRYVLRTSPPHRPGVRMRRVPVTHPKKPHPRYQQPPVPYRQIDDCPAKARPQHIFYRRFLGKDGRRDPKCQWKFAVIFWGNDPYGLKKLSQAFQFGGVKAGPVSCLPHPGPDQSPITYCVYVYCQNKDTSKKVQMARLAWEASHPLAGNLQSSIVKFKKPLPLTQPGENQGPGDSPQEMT
UCH37 inh = inhibitors of human UCH37 deubiquitinase, primary screen, biochemical, Ub-AMC cleavage, fluorescence; Ubiquitin carboxyl-terminal hydrolase isozyme L5 (Homo sapiens), Q9Y5K5; purified proteasome/UCH37; inhibition, % (concentration not given with the values); actives 0.33% (n = 330,000);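 active = mean of two replicates above 20%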;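 note: 0% = compound-free wells with enzyme and 100% = wells lacking proteasome; stock transfer was 100 nL into about 20 µL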
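System: Proteasome-associated human UCH37 deubiquitinase; Input: 0.15 nM proteasome in added enzyme buffer; Also added: Ub-AMC substrate from 1 µM stock; Incubation: 30 min compound-proteasome preincubation then 25 min substrate reaction, room temperature; Detection: fluorescence, ex 355 nm, em 460 nm; Read-out: % inhibition of Ub-AMC cleavage fluorescence; Benchmarks: no-proteasome and no-compound wells.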
Ecoli growth = E. coli growth inhibition, primary screen, OD600; Escherichia coli growth, 23 h; stronger effect = lower value; OD600 absorbance (concentration not given with the values); actives 0.21% (n = 330,000);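 active = OD600 absorbance below the run mean of sample wells minus 3.6 SD, in any replicate, cut at about 0.56 in these data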;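 note: stock transfer was 300 nL into about 60 µL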
Vif TR-FRET = inhibitors of Vif binding to APOBEC3G peptide, primary screen, biochemical, TR-FRET, GST-Vif 1-94, biotin-A3G peptide, dose response retest (AID 1117319). actives 0.57% (n = 260,000). TR-FRET GST-Vif / biotin-A3G peptide binding; higher % means a stronger effect; test concentration not given here; strong numbers were not always called active. Virion infectivity factor (Human immunodeficiency virus type 1 group M subtype B (isolate …. inhibition, %; hits with a dose series show IC50 in µM;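 active = above the screen mean plus three standard deviations and confirmed in dose response; inconclusive = results disagree or hit not tested in dose response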;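 note: Vif residues 1-94 fused to GST binding biotinylated APOBEC3G peptide 110-148; 0% = full assay without inhibitor and 100% = GST in place of GST-Vif; retest series ran down from 100 µM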
HNF4A DNA FP = change in binding of human HNF4A to DNA, primary screen, biochemical, fluorescence polarization, FITC-DNA; actives 0.3% (n = 360,000); 1 h; activity change, % at 10 µM; in the data active = activity change above about 30%, passing the limit was not always enough;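 note: controls were the assay level and a saturating level of protein; the project sought stronger binding though the title names inhibitors; some compounds called inactive have numbers as strong as hits; positive values seem to mean higher polarization but the record does not say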
Active calls of the source: *; u = inconclusive; x = no result given. Compounds as they come; 2.1% or so of the library scored in one or more.

Molecule	Bfl-1 A1 inh	Beta2AR agonist	LANA-H2A inh	UCH37 inh	Ecoli growth	Vif TR-FRET	HNF4A DNA FP
O=C(CSc1nc(N2CCOCC2)nc(N2CCOCC2)n1)Nc1ccc([N+](=O)[O-])cc1	0.5	4	4.0	4.0	0.65	x	2.2
O=C1C2Sc3[nH]c(=O)sc3C(c3ccccc3)C2C(=O)N1c1ccccc1 (stereo not drawn)	0.4	14	2.0	1.6	0.69	12%	-0.1
C/C(=N\NS(=O)(=O)c1ccc(C)cc1)c1cc2ccccc2oc1=O	0.5	-3	1.4	x	x	-10%	0.4
COc1ccc(NC(=O)CSc2nnc(C3CC3)n2C)cc1S(=O)(=O)N1CCCCC1	0.0	-6	-4.0	-2.1	0.7	-4%	4.6
CC1CCN(S(=O)(=O)c2ccc(NC(=O)c3ccccc3F)cc2)CC1	-2.5	1	-2.9	1.7	0.67	x	0.6
C#CCN(C(=O)c1ccc(OC2CCN(C(=O)CCOC)CC2)cc1)C1CCCCC1	0.8	2	-2.3	6.3	0.7	x	-0.1
Cn1c(=S)oc2ccccc21	0.1	-9	0.5	6.0	0.62	-7%	3.2
O=C(CCCOc1ccccc1)NCC1CCCO1 (stereo not drawn)	-0.4	-2	-0.5	3.4	0.72	16%	2.4
COc1ccc(-c2nnn(CC(=O)N3CCN(c4ccccc4OC)CC3)n2)cc1OC	0.5	-6	-1.7	0.4	0.68	x	4.0
CC(C(=O)O)N1C(=O)/C(=C/C=C/c2ccco2)SC1=S (stereo not drawn)	-0.9	-1	4.2	1.6	0.73	0.39µM*	-47
Cn1cc(C(=O)c2ccc(Cl)cc2Cl)cc1C(=O)NN	0.3	-8	6.1	1.3	0.66	x	-0.8
Cc1cc(C)c(NC(=O)c2cc(=O)c3ccccc3o2)c(C)c1	-0.1	-2	4.7	4.6	0.73	x	-0.9
Brc1ccc(-c2csc(/N=C/N3CCOCC3)n2)cc1	1.9	-3	2.6	x	x	-1%	-3.3
COc1ccc(OC)c(/C=N\NC(=O)c2cc3c(ccc4ccccc43)o2)c1	0.2	30	3.2	x	x	-1%	0.8
O=C1C=C(c2cc(Cl)cc(Cl)c2)C[C@@H](c2ccc3c(c2)OCO3)C1	-0.6	-2	2.2	-0.9	x	x	-2.5
CCN(CC)S(=O)(=O)c1ccc(N/N=C/c2cc(OC)ccc2O)nc1	1.6	7	0.9	x	x	x	4.5
Cc1cccc(OCc2nnc(SCC(=O)NCC3CCCO3)n2C)c1 (stereo not drawn)	0.1	0	-3.4	2.4	0.69	-3%	5.5
O=C(CSc1nc2ccccc2o1)NC1CCS(=O)(=O)C1 (stereo not drawn)	0.6	-1	2.9	0.6	0.71	1%	2.6
COc1cccc(N2C(C(C)=O)=NN(c3ccccc3)C2c2ccc(N3CCOCC3)cc2)c1 (stereo not drawn)	-1.2	0	-2.7	x	x	1%	8.8
CCOC(=O)CC1(NC(=O)C2CCC(=O)N(CCc3ccccc3)C2)CCCCC1 (stereo not drawn)	-0.6	1	-1.8	3.5	0.69	x	-2.1
O=C(CC(C(=O)O)c1ccccc1)Nc1ccccc1 (stereo not drawn)	-0.9	3	2.7	1.0	0.72	x	3.2
CC1(C)CC(=O)C2=C(C1)OC1=C(C(=O)CC(C)(C)C1)C2(C)C	0.0	x	0.6	3.9	0.67	-5%	x
CN1CCN(S(=O)(=O)c2cccc(C(=O)Nc3ccccc3N3CCCC3)c2)CC1	0.3	-6	-1.6	2.6	0.73	6%	-0.2
CCN1C(=O)[C@H]2[C@@H](c3ccc(C)cc3)N3C(=O)N(c4ccc(C(F)(F)F)cc4)C(=O)[C@@]3(Cc3ccccc3)[C@H]2C1=O	-0.8	-5	8.8	0.8	x	x	-0.1
Cc1cc(=O)[nH]c2nnnn12	-0.5	4	-0.1	4.2	0.71	u	3.6
COc1ccc(N=NC2=C(O)CC(C)(C)CC2=O)c(OC)c1	0.0	-5	-0.3	15	0.7	1%	51*
O=C(O)c1ccccc1C(=O)Nc1ccc(-n2ccc(C(F)(F)F)n2)cc1	-1.2	-1	0.0	4.4	0.69	0%	-4.9
CC(=O)Nc1sc(C)c(C)c1C(=O)OCC(=O)N(C)C1CCS(=O)(=O)C1 (stereo not drawn)	0.2	-7	0.5	2.1	0.63	x	-0.6
COC(=O)[C@H]1C2CCC(C(=O)OC)(CC2)[C@H]1C(=O)OC	1.2	6	2.2	-1.5	0.69	0%	2.3
O=C(c1cccc(Br)c1)N1CCN(c2ccccn2)CC1	-1.1	-11	4.8	0.6	0.66	x	-1.9
Cc1cc([N+](=O)[O-])nn1CC(=O)N(C)Cc1ccccc1	1.0	-1	-1.5	3.6	0.65	x	-2.4
CCN(c1ccccc1)S(=O)(=O)c1ccc(Cl)c(NC(=O)CNC(C)c2ccccc2)c1 (stereo not drawn)	0.6	6	2.0	2.4	0.7	x	2.2
Cc1c(-c2csc(N)n2)cnn1C	-0.7	-2	3.9	-0.5	0.72	-7%	-2.1
CSc1nsc(/C=C/Nc2ccc(F)cc2F)c1C#N	0.2	9	2.6	6.8	0.72	x	42*
Cc1cc(-c2ccc(C)c(S(=O)(=O)N3CCN(c4ccc([N+](=O)[O-])cc4)CC3)c2)on1	-0.1	3	-6.8	5.4	0.67	x	-0.3
O=c1c[n+]([O-])c2ccccc2n1OCc1ccccn1	0.8	-6	5.5	-6.8	0.73	1%	-6.0
CN(C)CCCN(C(=O)C1=COCCO1)c1nc2ccc(Br)cc2s1	2.0	14	-3.3	10	0.69	-7%	3.3
COC(=O)c1sc(NC(=O)CSc2nnnn2C)nc1C	-0.3	10	7.9	3.1	0.66	x	-1.1
O=C(Cc1ccc(Cl)cc1)NNC1CC(=O)N(c2ccc3ccccc3c2)C1=O (stereo not drawn)	-0.2	-1	-5.3	1.2	0.73	-6%	3.9
COCCOc1ccc(C(F)(F)F)cc1NC(=O)CN1C(=O)NC2(CCCc3ccccc32)C1=O (stereo not drawn)	1.3	28	6.0	2.9	0.7	2%	-0.2
NS(=O)(=O)c1ccc(CCNS(=O)(=O)c2ccc(Cl)s2)cc1	0.8	-2	1.3	-1.8	0.66	x	3.0
CCOC(=O)COc1coc(CN2CCN(c3ccccc3)CC2)cc1=O	1.3	6	-1.2	1.2	0.66	x	4.3
Cc1nnc(NC(=O)C2CCCC2)s1	1.3	4	-5.2	1.4	0.69	-7%	3.8
Cc1occc1C(=O)NNC(=O)Nc1ccc([N+](=O)[O-])cc1	-0.6	14	-3.8	7.3	0.67	27%	-4.3
COc1ccc(C(CNC(=O)c2cc(=O)[nH]c3ccccc23)N2CCCC2)cc1 (stereo not drawn)	-0.8	-4	2.5	-15	0.73	-2%	0.3
CSc1nnc2c(n1)OC=Nc1ccccc1-2	1.1	11	-1.7	5.0	0.71	19%	-1.8
CCOC(=O)C1Cc2ccccc2C(=O)O1 (stereo not drawn)	0.0	6	0.7	0.4	0.71	-2%	2.0
O=C(COC(=O)c1cccs1)Nc1ccc(S(=O)(=O)N2CCOCC2)cc1	1.5	0	0.9	2.2	0.71	x	-0.8
COc1ccc(C(=O)N/C(=C\c2cn(C)c3ccccc23)C(=O)NCCCn2ccnc2)cc1OC	0.6	1	-0.4	10	0.63	-5%	-4.6
Cc1ccc2c(c1)c1c(n2CC2COC(C)(C)O2)C(=O)CCC1 (stereo not drawn)	-1.3	-16	-1.4	-54	0.67	0%	0.7
CCN(CC)S(=O)(=O)c1ccc(NC(=O)c2cccc3c2C(=O)N(CCOC)C3)cc1	-0.7	-7	-4.2	-65	0.71	x	-0.9
Cc1ccc(C)c(NC(=O)Nc2ccc3c(c2)OCO3)c1	-2.3	-1	6.3	6.8	0.7	-8%	2.4
CC(=O)C1C(c2ccc(F)cc2)c2c(noc2C)CC1(C)O (stereo not drawn)	1.7	-3	-2.9	0.9	0.68	-1%	3.4
CCCc1ccc2oc(C(=O)N(C)Cc3nccs3)c(C)c2c1	-0.3	-7	-2.8	0.9	0.71	-2%	1.1
Cc1ccc(C)c(S(=O)(=O)Nc2ccc(C(=O)N3CC(C)OC(C)C3)cc2)c1 (stereo not drawn)	0.6	1	0.1	-0.3	0.66	x	-2.5
Cc1ccc(C(=O)NCCN2C3=NC[C@@H](Cc4ccccc4)N3C[C@H]2Cc2ccc(O)cc2)cc1Br	0.4	3	1.6	4.8	x	x	6.5

Other entries:
Molecule	Bfl-1 A1 inh	Beta2AR agonist	LANA-H2A inh	UCH37 inh	Ecoli growth	Vif TR-FRET	HNF4A DNA FP
CCOC(=O)C1(S(=O)(=O)c2ccccc2)CCN(Cc2ccccc2)CC1	0.2	2	2.8	3.8	0.7	0%	0.0
CCc1nc(NCCC(C)C)c(C#N)c2c1CCCC2	0.1	4	-1.4	-14	0.72	0%	-5.7
CCOCCCNC(=O)CSCc1nc(-c2ccc(SC)cc2)oc1C	-0.8	2	-0.8	-3.3	0.69	x	-0.8
CCC(=O)Nc1nc(C)cc(SCC(=O)OC)n1	-0.1	7	-3.2	0.8	0.79	3%	2.6
CC1=NNC(=O)/C1=C\c1cn(-c2ccccc2)nc1-c1ccc(F)cc1	x	108*	x	6.8	0.66	x	1.4
O=C(CC1C(=O)NCCN1Cc1ccccc1)NC1CCCCCC1 (stereo not drawn)	0.6	11	8.1	-7.1	0.67	x	-1.1
Cn1nc(C(F)(F)F)c(/C=N/OC(=O)c2ccccc2)c1Cl	0.4	0	-2.9	x	x	9%	1.3
CC1=C(C(=O)OC2CCCCC2)C(c2ccc(F)cc2)NC(=O)N1 (stereo not drawn)	-0.1	-13	-6.6	4.2	0.68	-5%	1.5
O=C(c1ccccc1)N(Cc1ccco1)C1CCS(=O)(=O)C1 (stereo not drawn)	0.7	0	3.0	1.7	0.71	16%	-4.2
O=S(=O)(c1ccc(F)cc1)N1CCN(c2ccccn2)CC1	-0.4	-5	7.6	-2.5	0.67	x	1.9
CNNC(=S)Nc1cccc(SC)c1	-0.5	-1	-1.2	7.1	0.69	x	-2.8
Cn1c(=O)c2cc(S(=O)(=O)Nc3cc(C(=O)O)cc(C(=O)O)c3)ccc2n(C)c1=O	0.6	4	2.6	1.3	0.67	6%	-5.1
O=C(CNC(=O)c1ccccc1)NCC(=O)OCC(=O)c1ccccc1	0.9	2	1.1	0.2	0.69	6%	-2.7
O=C(COC(=O)c1ccccn1)Nc1cccc2ccccc12	0.6	7	1.7	1.4	0.67	-12%	3.2
O=C(Cn1c(=O)oc2ccccc21)N1CCOCC1	-0.4	-5	-3.8	-0.1	0.67	-7%	-1.0
CCCCOP(=O)(c1ccc(N(C)C)cc1)C(O)c1ccc(OC)c(OC)c1 (stereo not drawn)	-0.7	1	-2.0	4.0	0.64	-14%	-6.3
